Compound activity (PubChem BioAssay)
HPGD block – inhibitors of human 15-hydroxyprostaglandin dehydrogenase (HPGD); AID 894; 150,000 compounds, 4.3% hits; purified HPGD, NADH fluorescence kinetic, PGE2 substrate; Potency, µM, inactives show at the top dose activity change, negative = inhibition, hits mostly inhibitors; active = well fitted inhibition curve with a large enough effect (not every such curve was filed as active); inconclusive = small, poorly fitted or top-dose-only effect, or another doubt; inactive = no such curve, though single readings can be large or run the other way;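 note: top concentration of the series not given in the record; plate controls included wells without enzyme; inactives centre near -10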
Target sequence (P15428 whole entry, looked up): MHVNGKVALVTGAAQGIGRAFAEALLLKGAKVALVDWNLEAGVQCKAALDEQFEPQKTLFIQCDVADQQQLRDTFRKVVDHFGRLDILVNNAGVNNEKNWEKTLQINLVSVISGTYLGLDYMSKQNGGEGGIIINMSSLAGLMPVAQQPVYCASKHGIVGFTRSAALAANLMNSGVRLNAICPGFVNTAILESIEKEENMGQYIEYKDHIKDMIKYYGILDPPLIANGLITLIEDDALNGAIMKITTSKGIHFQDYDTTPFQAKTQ
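20 nM HPGD preincubated 15 min at room temperature with compound in 50 mM Tris-HCl pH 8, 0.01% Tween 20. Started with 1 mM NAD+ and 30 uM prostaglandin E2; NADH fluorescence (360/450 nm) read 5 times over 30-s intervals, last minus first.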
* = called active by the depositor; ? = inconclusive; & = joins results of further samples. % is set by controls: 0 for no effect and ±100 for the full control effect; potency is the fitted concentration of half-maximal effect.

canonical_smiles,HPGD block
CCC(=O)N1CCN(c2ccc(OC)cc2[N+](=O)[O-])CC1,0%
Cc1ccc(S(=O)(=O)Nc2ccc(Cl)cc2)cc1NC(=O)Cn1cnc2c1c(=O)n(C)c(=O)n2C,-6%
CCN(CC)c1ccc2c(C)cc(=O)oc2c1,?
O=C(NCC(=O)N(Cc1ccco1)C(C(=O)NC1CCCCC1)c1cccnc1)c1ccco1 (centres undefined),-10%
COc1ccc(OCC(O)CN2CCCCC2)cc1 (centres undefined),-15%
CCOCCOC(=O)c1[nH]c2c(c1C)C(=O)CC(c1ccc(N(C)C)cc1)C2 (centres undefined),-12%
Clc1cccc(-c2cc3nc4c(c(N5CCNCC5)n3n2)CCCC4)c1,?
COc1cc(C2c3sc(=O)[nH]c3SC3C4CCC(C4)C23)ccc1O (centres undefined),-4%
CCCCCCC(=O)N/N=C/c1ccc(Br)cc1,-2%
CCn1c(=O)c(C(=O)CN2c3ccccc3CC2C)c(N)n(Cc2ccccc2)c1=O (centres undefined),-8%
O=C(Nc1cccc(F)c1)c1ccccc1,32µM*
COc1ccccc1CNc1ncnc2ccc(-c3ccccc3CN(C)C)cc12,-25%
COC(=O)[C@@H]1CC[C@H](C)[C@@H](c2ccc(C)cc2)N1C(=O)c1ccc(/C=N/OCC[C@@H]2C=C[C@H](OC(C)=O)[C@@H](COC(C)=O)O2)cc1,-17%
CCOC(=O)c1ccc(/C=C2/C=C(c3ccccc3)N(c3ccc(Cl)c(C(=O)O)c3)C2=O)cc1,-23%
Cc1ccccc1Cn1nc(C)c(NC(=O)C(F)(F)F)c1C,0%
CN1C(=O)N(C)C2=NNC=NC2(O)C1=O (centres undefined),?
CN(C)/N=N/c1nc[nH]c1C(N)=O,-21%&-20%
O=S(=O)(c1ccccc1)N(Cc1ccccc1)c1ccccn1,-5%
Cn1c(=O)c2c(SCc3ccccn3)nc(CC(C)(C)C)nc2n(C)c1=O,-13%
CCS(=O)(=O)C(=C1Nc2ccccc2N1)S(=O)(=O)CC,-8%
COC(=O)c1ccc(/C=N/NC(=O)c2ccccc2Cl)cc1,-10%
COc1ccc(/C=C2\SC(=N)N(c3nccs3)C2=O)cc1OC,?
COc1ccc(N=Nc2nc3ccc(Br)cc3n2C)cc1,-5%
CC(C)OC(=O)c1cccc(C(=O)OCc2ccco2)n1,-7%
COc1ccc2c(c1)O[C@@H](c1ccc3c(c1)OCO3)[C@H](OC(=O)Nc1cc(OC)c(OC)c(OC)c1)C2=O,-8%&-9%
Cc1ccccc1CSCC(=O)c1c(N)n(CC(C)C)c(=O)n(C)c1=O,-9%
COc1cccc2c(=O)n(CC(=O)N3CCCCC3)ccc12,-27%
O=C(COc1cccnc1[N+](=O)[O-])Nc1ccccc1Sc1ccccc1,-25%
Cc1cc(C)c2c(N)c(C(=O)Nc3ncc(C)s3)sc2n1,?
Cn1cnnc1SCC(=O)N1N=C2/C(=C/c3ccco3)CCCC2C1c1ccco1 (centres undefined),?
O=C(N/N=C/c1ccc2c(c1)OCO2)c1sc2cccc(Cl)c2c1Cl,-8%
COc1ccc2[nH]c3c(=O)n(CCCCC(=O)N4CCC(C(N)=O)CC4)c(=S)[nH]c3c2c1,-17%
O=C(CCc1nc2ccccc2s1)Nc1ccccc1,-30%
CSc1ncc(Cl)c(C(=O)Nc2ccc(S(=O)(=O)N3CCOCC3)cc2)n1,-13%
COc1cc(/C=C2/CCC/C(=C\c3cc(O)c(OC)c(Cl)c3)C2=O)cc(Cl)c1O,-25%
COc1ccc(NC(=S)N(CCCN2CCOCC2)Cc2cn(C)c3ccccc23)cc1,-15%
CCOC(=O)C(C(=O)OCC)C1N=C(N)N=C2Oc3ccccc3N21 (centres undefined),?
CCOC(=O)c1c(NC(=O)/C=C/c2ccc3c(c2)OCO3)sc(C)c1C,-22%
CCOc1ccccc1C(=O)NC(C(=O)Nc1ccccc1N1CCOCC1)C(C)C (centres undefined),-2%
CC(=O)Nc1ccc(S(=O)(=O)NCCSCc2ccccc2Cl)cc1,-4%
CCOC(=O)COc1cccc2c(=O)n(CC(=O)N3CCN(C(=O)OCC)CC3)ccc12,-25%
CC(NC(=S)Nc1ccc(S(=O)(=O)N2CCOCC2)cc1)C1CC2CCC1C2 (centres undefined),-6%
O=c1c(C/C=C/c2ccccc2)c(O)nc2n1CCCS2,-6%
COc1ccc(S(=O)(=O)N2CCCCCC2)cc1N(C)S(=O)(=O)c1ccccc1,5%
CCCS(=O)(=O)c1nc(S(=O)(=O)c2ccc(C)cc2)c(NCc2ccco2)s1,-5%
CCCCn1c2c(c(=N)c3c1CCC3)CCC2,-11%
CN1CCN(CC(=O)NC2CCCCC2)CC1,-11%
COc1ccc(CCC(=O)N2c3ccccc3CC2C)cc1 (centres undefined),-14%
CC(=O)[C@@]1(O)CC[C@H]2[C@@H]3CCC4=CC(=O)CC[C@]4(C)[C@H]3[C@@H](O)C[C@@]21C,-5%
O=C(CSc1nc2ccccc2c2ccccc12)c1ccccc1,-20%
c1coc(-c2nnc3sc(C4CCCCC4)nn23)c1,25µM*
O=C(CCC(=O)N1CCN(C2CCCC2)CC1)Nc1nnc(C(F)(F)F)s1,-12%
CCNC(=S)NNC(=O)c1cc(-c2cccc(OC)c2)nc2ccccc12,-6%
CCOC(=O)c1cnc2c(cnn2C)c1NCCC(O)C(F)(F)F (centres undefined),-7%
C=C(C)C(=O)OCCCCCCCCCC,-6%
CCC(=O)NCCCCNC(=O)CC,-17%
Cc1cc(=O)oc2cc(Nc3ccccc3)ccc12,-29%
COc1ccc(C(C)=O)cc1CSc1nnc(C)s1,18µM*
COc1ccc(N(CC(=O)Nc2ccc(C)cn2)S(=O)(=O)c2c(C)noc2C)cc1,1%
O=C(c1cc([N+](=O)[O-])ccc1N1CCOCC1)N1CCCCC1,-11%

Other records:
canonical_smiles	HPGD block
CCOC(=O)C1CCN(Cc2coc3c(Cl)cc(Cl)cc3c2=O)CC1	-3%
COc1cccc(-c2nn(-c3ccccc3)cc2C(=O)n2nnc3ccccc32)c1	-19%
Cc1cc(C)c2c(c1)C1C=CCC1C(c1ccc(S(=O)(=O)N3CCOCC3)cc1)N2 (centres undefined)	-13%
COc1cc(S(=O)(=O)N2CCC(O)(c3cccc(C(F)(F)F)c3)CC2)ccc1-n1cnnn1	-2%
Cc1cc2cc(CNC(=O)c3ccc(S(=O)(=O)N4CCCCC4)cc3)ccc2n1C	-14%
N#C/C(=C\c1cc([N+](=O)[O-])c(N2CCOCC2)cc1N1CCOCC1)c1nc2ccccc2[nH]1	14µM*
Nc1ccccc1Nc1cc(-c2cccc(Cl)c2)nn1-c1ccccc1	-14%
CCSc1nnc(NC(=O)C2C3C=CC(C3)C2C(=O)O)s1 (centres undefined)	-2%
Cc1nnc(Sc2cc(C(=O)NCCCN(C)Cc3ccccc3)c3ccccc3n2)s1	-25%
Cc1ccc(S(=O)(=O)N(C)C)cc1NC(=S)NNC(=O)C1CC1	-13%
O=C1[C@H]2[C@@H](C(=O)N1c1cccc3ccccc13)C1(C(=O)c3ccccc3C1=O)N1CCC[C@@H]21	-13%
O=C(Nc1cccc(-c2csc(-c3ccccc3)n2)c1)c1cccs1	-11%
Cn1cc(C(=O)c2ccc(Cl)cc2Cl)cc1C(=O)N/N=C(\N)COc1ccc(F)cc1	-10%
O=C(N/N=C1/CC2C=CCC12)c1ccco1 (centres undefined)	-4%
O=C(c1ccccc1)c1cccc(NC(=O)c2ccc(Br)o2)c1	-30%
COc1ccc(C(=O)Cn2c(NCCO)nc3ccccc32)cc1OC	-3%

Reformatted with each value named: part of the list above
Cc1nnc(Sc2cc(C(=O)NCCCN(C)Cc3ccccc3)c3ccccc3n2)s1
  HPGD block: -25%

O=C1[C@H]2[C@@H](C(=O)N1c1cccc3ccccc13)C1(C(=O)c3ccccc3C1=O)N1CCC[C@@H]21
  HPGD block: -13%

O=C(c1ccccc1)c1cccc(NC(=O)c2ccc(Br)o2)c1
  HPGD block: -30%

O=C(N/N=C1/CC2C=CCC12)c1ccco1 (centres undefined)
  HPGD block: -4%

Next entries follow:
canonical_smiles	HPGD block
Cc1cccc(N2C(=O)CC(Sc3ccccc3C(=O)O)C2=O)c1 (centres undefined)	-12%
Cc1ccc(C)c(NC(=O)CSc2nnc(CCNC(=O)OC(C)(C)C)o2)c1	4%
c1ccc2c(-c3nn[nH]n3)cccc2c1	-6%
CCOc1ccc(NC(=O)c2ccccc2O)cc1	-13%
CCC1(C)Cc2ccccc2-c2nc(NCCCO)n(-c3ccccc3)c(=O)c21 (centres undefined)	?
COc1ccc(NC(=O)NCCCN2CCCCC2C)cc1 (centres undefined)	3%
COc1ccc(C2(C(F)(F)F)NC(=O)N(C)C(=O)N2C)cc1 (centres undefined)	-5%
O=C(Nc1cc(N2CCOCC2)ncn1)c1ccccc1	-11%
COc1cccc(C2C(C#N)=C(N)Oc3cc(C)oc(=O)c32)c1OC (centres undefined)	-10%
CC1CCCC(NC(=O)CCn2c(=O)oc3ccccc32)C1C (centres undefined)	-3%
CN1CCN(CC(O)c2ccccc2)CC1 (centres undefined)	5%
O=C1/C(=C\c2ccccn2)SC(=S)N1Nc1ncc(C(F)(F)F)cc1Cl	32µM*
Cc1onc(-c2ccccc2)c1C(=O)NC(=S)NNC(=O)c1ccc(O)cc1	-18%
CCOC(=O)c1sc(NC(=O)CSc2nc3c(c(-c4ccc(OC)cc4)c2C#N)CCCC3)c(C#N)c1C	?
COC(=O)CNC(=O)C1(C)C=CC2(CCCCC2)N1C(=O)OC (centres undefined)	-18%
COc1ccccc1NC(=O)Nn1cnnc1	-1%

Filtered by structure: the entries above containing a tert-butyl group (two)
canonical_smiles	HPGD block
Cn1c(=O)c2c(SCc3ccccn3)nc(CC(C)(C)C)nc2n(C)c1=O	-13%
Cc1ccc(C)c(NC(=O)CSc2nnc(CCNC(=O)OC(C)(C)C)o2)c1	4%

(further entries)
canonical_smiles	HPGD block
CCOC(=O)c1[nH]c2ccc(Br)cc2c1NC(=O)CCN1CCC(C(=O)OCC)CC1	-3%
Nc1cc(N)nc(SCc2ccccc2)n1	-7%
Cc1nc(SCC(=O)NCc2ccco2)c2c(C)c(C)sc2n1	-14%
Cc1ccc(C2CC2C(=O)NN)cc1 (centres undefined)	-10%
Cc1ccc(/C=[N+](/[O-])C2SC(=S)N(C)C2(C)C)cc1 (centres undefined)	-15%
COc1ccc(N(CC(=O)Nc2ccc3c(c2)OCCO3)S(=O)(=O)c2c(C)nn(C)c2C)cc1	-3%
Cc1nc2ccccc2n1C(=O)c1cc(-c2ccc(Br)cc2)nc2ccccc12	-20%
COC(=O)C(C)Sc1nc2c(cnn2-c2ccccc2)c(=O)[nH]1 (centres undefined)	-25%
c1ccc(-n2ncc3c(N4CCN(c5ccccn5)CC4)nc(N4CCOCC4)nc32)cc1	?
Cc1ccc(-c2csc3ncnc(OCC(=O)NC(=O)NCc4ccco4)c23)cc1	?
O=S(=O)(O/N=C1\CCCc2ccccc21)c1ccccc1	-12%
O=C(Cc1ccccc1)Nc1nnc(-c2cccs2)s1	?
O=C(CN1CCC(c2nc3ccccc3[nH]2)CC1)Nc1ccc2c(c1)OCO2	-8%
Cc1ccc(C(=O)N/N=C2\SCC(=O)N2c2cc(C)ccc2C)cc1	-14%
COc1ccc(CC(NC(C)=O)C(=O)NC2CCN(C(=O)Nc3ccc(Cl)cc3)CC2)cc1OC (centres undefined)	-6%
O=C(NCc1ccc(F)cc1)C1(c2cccs2)CCOCC1	-3%
CC1CCC2(CC1)Nc1ccccc1C(=O)N2c1ccccc1 (centres undefined)	?
CC(C)Sc1nc2ccccc2n1CC(N)=O	-16%
COc1ccccc1N1C(=O)CC(Sc2nccc(C)n2)C1=O (centres undefined)	-11%
COc1ccc(O)c(/C=c2/sc3nc4cc(C)c(C)cc4n3c2=O)c1	7.9µM*
CC(C)(C)C(=O)Nc1ccccc1C(=O)Nc1cccnc1	-6%
O=C(C1=C(O)C(=O)N(CCCN2CCOCC2)C1c1ccncc1)c1cc2ccccc2o1 (centres undefined)	-7%
COc1ccc(C(=O)C(C)OC(=O)c2cccc(S(=O)(=O)Nc3cc(Cl)c(OC)cc3OC)c2)cc1 (centres undefined)	-8%
CCCn1cc(NC(=O)c2cc3n(n2)C(C(F)(F)F)CC(c2ccccc2)N3)cn1 (centres undefined)	-7%

Part of the list above, with the structure last:
HPGD block | mol
-16% | CC(C)Sc1nc2ccccc2n1CC(N)=O
-11% | COc1ccccc1N1C(=O)CC(Sc2nccc(C)n2)C1=O (centres undefined)
7.9µM* | COc1ccc(O)c(/C=c2/sc3nc4cc(C)c(C)cc4n3c2=O)c1

The listing continues:
canonical_smiles	HPGD block
CCCC[C@@H]1C[C@H]1[C@@H](NC(=O)c1cccs1)c1ccc(Cl)cc1	-12%
Cc1onc(-c2c(F)cccc2Cl)c1C(=O)N1CCc2ccccc2C1	-10%
Cc1noc(C)c1C(=O)N1CCC[C@@]2(CCN(c3ncccn3)C2)C1	-17%
COc1ccc2c(C)c(C(=O)O)oc2c1	-29%
O=C(c1cnn2c(C(F)F)cc(C3CC3)nc12)N1CCCC1	-24%
O=C(COC(=O)C1CC(=O)N(c2nc(-c3ccccc3)cs2)C1)c1ccccc1 (centres undefined)	-12%
CCN(C(=O)CSc1nc2cc(C(F)(F)F)ccc2n1Cc1ccccc1)C1CCS(=O)(=O)C1 (centres undefined)	-3%

The list is partial. The share of hits here may be higher or lower than overall.
